Assay outcomes: PubChem, National Center for Advancing Translational Sciences (NCATS)
Rango release inh: inhibition of RanGTP-driven Rango-importin beta dissociation; Biochemical FRET Rango-importin beta, RanGTP-induced dissociation; Potency, µM (doses to about 46.1 µM), inactives show at the highest dose activity change, negative = inhibition; 340,000 tested, 0.071% active; O95149+P62826; active means falling FRET ratio curve, often poorly fitted, with flat reads before Ran was added; inconclusive means other falling curves, or compound fluorescence or quenching; inactive means flat or rising ratio curve;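 also: potency is read from the fitted curve at half-maximal effect; % of control where 0% means no effect; nearly all actives have a fitted effect of over 45% in size; -100% = wells without RanGTP and RCC1; the record marks most hits as doubtful in a second field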
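FRET read at 45 min, room temperature: inhibitors block the CFP/YFP signal rise when RanGTP (0.6 uM Ran, 2 mM GTP, 0.2 uM RCC1) frees Rango (0.1 uM) from importin beta (0.25 uM). Pre-read after 5 min compound exposure flags interference.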
miR-21 reporter: miR-21 reporter, rising signal; HeLa miR-21 FLuc reporter, luciferase, 48 h; Potency, µM (titrated, usually from 38.3 µM), for the others: top-dose reporter change, positive = more light; 340,000 tested, under 10 active; AID 2288; active = well fitted rising curve with a large enough effect; inconclusive = small, poorly fitted or top-dose-only effect; inactive = no such curve, though single readings can be large or run the other way;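 also: % of control where 0% means no effect; miR-21 action dims this reporter so a rising signal means less miR-21 action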
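Luminescence from a firefly luciferase reporter carrying a miR-21 binding site downstream, stably expressed under a CMV promoter in HeLa cells that make miR-21 endogenously, reports miRNA modulation after 48 h compound exposure up to approximately 40uM final.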
Rango-impB inh: inhibitors of Rango-importin beta complex formation; Q14974; Rango CFP/YFP FRET sensor + importin beta, 45 min; Potency, µM (top dose mostly 92.2 µM), for the others: at the top dose inhibition of complex formation; 340,000 tested, 0.031% active; AID 540263; active = rising FRET ratio curve, often small or poorly fitted; inconclusive = mostly compound fluorescence or quenching in the first reads; inactive = flat curves in all reads;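 also: potency is read from the fitted curve at half-maximal effect; 0% = DMSO wells and 100% = buffer wells lacking importin beta; nearly all actives have a fitted effect of over 15% in size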
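FRET biosensor Rango (snurportin 1 IBB between N-terminal EYFP and C-terminal Cerulean), 50 nM in PBS/1 mM DTT/0.02% Tween-20/0.1% BSA, preincubated 5 min RT with compound; 0.125 microM importin beta added, 45 min RT, CFP/YFP FRET ratio read.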
GLA inh pH 4.5: blocks human alpha-galactosidase A at pH 4.5. purified enzyme, 4-MU-alpha-Gal fluorescence, pH 4.5. AID 1467. activity change, negative = inhibition, % at 105 µM. 230,000 tested, under 10 active; inconclusive = small, poorly fitted or top-dose-only inhibition, or a rising curve; inactive = flat fitted curve, though single readings scatter; no compound was filed as active;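 also: 0% = full activity with enzyme and -100% = basal without enzyme; dose as in the result columns while the protocol names 77 µM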
Target sequence (P06280 whole entry, looked up): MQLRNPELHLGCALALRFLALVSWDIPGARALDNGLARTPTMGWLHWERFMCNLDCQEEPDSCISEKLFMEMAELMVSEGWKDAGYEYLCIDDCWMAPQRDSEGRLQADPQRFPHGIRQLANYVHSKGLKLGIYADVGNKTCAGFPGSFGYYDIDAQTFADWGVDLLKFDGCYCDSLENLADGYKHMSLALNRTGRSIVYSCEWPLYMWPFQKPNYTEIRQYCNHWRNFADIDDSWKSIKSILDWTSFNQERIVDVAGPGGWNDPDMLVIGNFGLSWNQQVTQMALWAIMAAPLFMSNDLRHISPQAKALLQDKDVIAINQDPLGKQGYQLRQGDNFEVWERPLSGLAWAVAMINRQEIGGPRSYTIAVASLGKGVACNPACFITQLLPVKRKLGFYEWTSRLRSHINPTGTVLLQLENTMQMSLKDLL
An asterisk follows results filed as active; u = inconclusive; x = no result given; & = joins results of further samples. These rows are one share of the data (hit frequency here may not be typical).

| Structure | Rango release inh | miR-21 reporter | Rango-impB inh | GLA inh pH 4.5 |
| --- | --- | --- | --- | --- |
| CCn1nnnc1SCC(=O)Nc1nc2ccc(OC)cc2s1 | 1.0% | -34.2% | 2.9% | -4.3 |
| Nc1ccc2c(c1)C(=O)c1ccc(Cl)cc1-2 | -26.3% | x | 8.3% | x |
| Cc1c(O)ccc2c3c(c(=O)oc12)CCCC3 | u | -9.6% | u | u |
| O=C(COC(=O)c1ncc(Cl)c(Cl)c1Cl)NCc1cccs1 | 6.2% | x | -1.2% | x |
| CC(C=Cc1ccccc1)=NNS(=O)(=O)c1ccc([N+](=O)[O-])cc1 | -2.6% | x | 2.1% | x |
| C=C1C(=O)O[C@H]2[C@H]1[C@@H](O)CC(=C)[C@@H]1CC(=O)[C@@H](C)[C@H]21 | 23.4% | 13.3% | -1.4% | x |
| O=C(CNC(=O)c1ccc(Br)o1)NNC(=O)COc1ccccc1Cl | -8.3% | x | -0.3% | x |
| O=C(Nc1cccs1)Nc1ccc(F)cc1F | 10.2% | -31.5%&-24.4% | -0.3% | -2.5 |
| CC1CCCC(C)N1C(=O)COC(=O)CNC(=O)c1ccccc1F (stereo not given) | 14.8% | x | -1.0% | x |
| CN(C)S(=O)(=O)c1cc(NC(=O)COC(=O)CC2CC3CCC2C3)ccc1Cl (stereo not given) | -11.4% | x | -5.4% | x |
| CC1(C)Oc2ccc(/C=C/C(=O)N3CCOCC3)c(O)c2C(N2CCOCC2)C1O (stereo not given) | x | -17.1% | x | -19.0 |
| CCc1ccc(/C=C2/SC(=S)N(CCC(=O)NCCCN3CCOCC3)C2=O)cc1 | -7.9% | -2.5% | 4.8% | x |
| O=c1cc2c(nn1Cc1ccc(Cl)cc1)-c1ccccc1CC2 | 0.6% | -10.4% | -0.6% | -5.6 |
| O=C(CCNS(=O)(=O)c1cccs1)NCc1ccccc1 | 11.0% | -0.5% | -0.4% | 6.3 |
| O=C(CN(C(=O)CNC(=O)c1cccs1)c1ccc(F)cc1)NC1CCCC1 | 1.3% | 0.4% | -0.8% | x |
| COc1ccc2nc(NCc3cccnc3)sc2c1 | 14.3% | -31.5% | -2.4% | x |
| CCC(=O)Nc1ccc2c(c1)nc(CCN1CCN(c3ccccc3)CC1)n2C | -1.1% | 0.6% | 0.2% | -5.5 |
| COc1cc(OC)c(C2=Nc3ccc(Br)cc3C(c3ccccc3)N2CC(=O)NN)cc1OC (stereo not given) | -4.0% | -0.1% | 4.4% | 1.2 |
| O=C1COc2ccc(C(=O)COC(=O)c3ccc(S(=O)(=O)C(F)F)cc3)cc2N1 | -4.1% | x | -2.6% | x |
| Oc1ccc2ccccc2c1CN1CCN(c2ccccc2F)CC1 | 1.8% | -7.8% | -0.4% | -0.6 |
| O=C(NCC1CCCO1)c1ccc2c(c1)C(=O)N(C1CCCCC1)C2=O (stereo not given) | -2.1% | -8.1% | -1.7% | 5.9 |
| Cc1ccc2c(c1)N(CCC(=O)NCc1cccs1)C(=O)C(C)O2 (stereo not given) | 0.6% | -3.0% | 0.2% | -0.9 |
| Cc1[nH]c2ccc(F)cc2c1CCN(Cc1ccncc1)C(=S)Nc1cccc(F)c1 | 25.4% | u | -0.1% | -4.9 |
| COc1ccc2nc(NC(=O)c3ccoc3C)sc2c1 | 1.4% | -19.7% | -0.6% | 5.9 |
| CC(=O)Nc1ccc(S(=O)(=O)Nc2ccccc2C(=O)N2CCCCC2)cc1 | -15.8% | 2.3% | -2.3% | x |
| Cc1ccccc1C(=O)NC(=S)NCCc1ccccc1 | -9.6% | -17.1% | 4.2% | -19.7 |
| C/C=C\C(=O)Nc1cccc(C2=NOC3(C2)C[C@@H](C(N)=O)N(C(=O)c2ccccc2)C3)c1 (stereo not given in full) | 0.1% | 4.5% | -0.4% | 7.0 |
| O=C(Nc1ccccc1)C1=C[C@H](c2ccc(C(F)(F)F)cc2)C[C@H](OCCCCO)O1 | -5.6% | x | 0.9% | x |
| CCOc1cccc(-c2nnc(SCC(=O)Nc3cccc(OC)c3)n2N)c1 | -4.7% | -7.4% | -0.3% | -3.3 |
| CCN(CC)S(=O)(=O)c1cccc(NC(=O)CC2CCCC2)c1 | -10.2% | 0.7% | -0.6% | x |
| O=Cc1c(NCc2ccc(F)cc2)c2ccccc2[nH]c1=O | 34.9% | 1.3% | -1.0% | x |
| Cc1ccc(N2C(=O)CN(Cc3ccccc3)C2=S)cc1C | -0.9% | -4.4% | -1.6% | x |
| O=C(COC(=O)Cc1ccc(Br)cc1)NCc1ccc(F)cc1 | -13.4% | -3.6% | -1.7% | 2.1 |
| C=CC(COCc1ccccc1)N(C(=O)OC(C)(C)C)S(=O)(=O)c1ccccc1Br (stereo not given) | -7.0% | 6.1% | 4.0% | -5.7 |
| O=C(NCc1ccon1)C1CCC(=O)N(CCc2cccc(F)c2)C1 (stereo not given) | 1.2% | -1.3% | 2.2% | x |
| CN(C)CCNc1c(N)c(=O)oc2ccccc12 | -15.1% | 3.9% | 1.7% | 5.1 |
| Cc1nc2ccccc2n1-c1nc(-c2ccco2)cc(C(F)(F)F)n1 | 5.1% | 0.9% | -2.0% | 3.1 |
| Cc1ccc(S(=O)(=O)CC(=O)c2ccccc2[N+](=O)[O-])cc1 | 6.0% | 0.7% | 2.2% | x |
| Cc1ccc(S(=O)(=O)N(C)C)cc1NC(=O)COC(=O)COc1ccc2c(c1)CCC2 | -4.4% | x | -1.5% | x |
| COc1cc(O)cc2c1[C@@H]1Oc3c(ccc(O)c3CC=C(C)C)[C@@H]1CO2 | -13.1% | x | 0.4% | x |
| c1ccc(-n2nc3ccccc3n2)cc1 | 1.5% | -6.3% | -0.5% | 2.1 |
| O=C1CC(N2CCN(c3ccccc3Cl)CC2)C(=O)N1c1ccccc1 (stereo not given) | 3.0% | -9.1% | 0.4% | -0.5 |
| Cc1cccc(N(CC(=O)NC2CC3CCC2C3)S(=O)(=O)c2ccccc2)c1 (stereo not given) | 26.3% | 1.6% | 8.9% | x |
| O=C(c1cnn2c(C(F)(F)F)cc(-c3ccco3)nc12)N1CCCc2ccccc21 | -16.0% | -1.3% | -0.7% | 0.0 |
| Cc1ccc2cc(C#N)c(SCc3nnc(-c4ccccc4[N+](=O)[O-])o3)nc2c1 | 6.9% | -7.9% | 2.1% | 1.7 |
| CC(C)(C)c1ccc(OCCOc2ccc(C(C)(C)C)cc2NC=O)c(NC=O)c1 | 9.8% | u | -1.5% | -11.6 |
| CCc1ccc2ncc(S(=O)(=O)c3ccc(C)c(C)c3)c(N3CCCC3)c2c1 | 13.2% | -1.4% | -0.9% | 5.3 |
| CCCCOC(=O)C1=C(C)Nc2ncnn2C1c1cc(OC)c(OC)cc1OC (stereo not given) | 5.8% | -14.1% | -1.5% | -1.7 |
| COc1ccccc1OCCCC(=O)Nc1ccc([N+](=O)[O-])cc1Br | 0.1% | -12.5% | -0.3% | -0.3 |
| CCOC(=O)[C@H]1[C@H]2COc3ccc(OC)cc3[C@@H]2N2C(=O)CN(C)C(=O)[C@@]12C | 18.4% | x | -0.2% | x |

(further entries)
| Structure | Rango release inh | miR-21 reporter | Rango-impB inh | GLA inh pH 4.5 |
| --- | --- | --- | --- | --- |
| COCCNc1nc(=S)[nH]c2cc(OC)c(OC)cc12 | 1.4% | 3.7% | 1.5% | u |
| COc1cccc2sc(N(CCCN(C)C)C(=O)COc3ccc(Cl)cc3)nc12 | -6.3% | 1.4% | -1.6% | -7.6 |
| CC(Sc1nnc2ccccn12)C(=O)Nc1ccc(N2CCOCC2)cc1 (stereo not given) | 0.5% | x | u | x |
| CN(C)c1ccc(N/C=C/C(=O)C(C)(C)C)cc1 | -11.9% | -27.6% | 3.3% | 4.4 |
| COc1ccc2[nH]c(=O)c(CN(C(C)=O)c3ccc(C)c(C)c3)cc2c1 | 1.9% | 3.7% | -0.4% | x |
| C=CCn1c(Cc2cccs2)nnc1SCC(=O)NCc1ccco1 | -13.3% | -0.4% | u | 2.2 |
| N#CCCN1CCN(CCC#N)CC1 | -0.3% | 0.3% | 0.2% | -5.1 |
| CC(C)(C)c1ccc(OC(=O)c2cccnc2)cc1 | -1.5% | -3.4% | -1.2% | -8.3 |
| COc1cc(C)c(NC(=O)C(=S)NCCc2ccccc2)cc1C | -1.0% | -5.1% | -0.1% | 2.7 |
| Cc1cc(/C=N/NC(N)=O)c(C)n1-c1ccc(F)cc1 | 12.1% | -6.8% | 0.1% | -0.1 |

Limited to Rango release inh and miR-21 reporter (two entries from above):
smiles | Rango release inh | miR-21 reporter
C=C1C(=O)O[C@H]2[C@H]1[C@@H](O)CC(=C)[C@@H]1CC(=O)[C@@H](C)[C@H]21 | 23.4% | 13.3%
O=C(CNC(=O)c1ccc(Br)o1)NNC(=O)COc1ccccc1Cl | -8.3% | x

The list continues.
| Structure | Rango release inh | miR-21 reporter | Rango-impB inh | GLA inh pH 4.5 |
| --- | --- | --- | --- | --- |
| COc1cc(C)c(C)cc1S(=O)(=O)N1CCCc2ccccc21 | 4.1% | 12.4% | -0.3% | x |
| O=[N+]([O-])c1ccccc1Nc1nc(-c2cccnc2)cs1 | -1.1% | -61.2% | -1.0% | x |
| NC(=O)CCn1nc(-c2ccccc2)c2ccccc2c1=O | -2.2% | -5.2% | -0.2% | 6.5 |
| COc1ccc(N2CC(C(=O)NC3CCSC3=O)CC2=O)cc1 (stereo not given) | -10.2% | 0.5% | -1.2% | x |
| CC(C)OCCCNC(=O)CN1C(=O)/C(=C/c2ccccc2)Sc2ccccc21 | 7.5% | -7.8% | -0.3% | -4.6 |
| Cc1cccc(OCC(=O)Nc2cccc3nsnc23)c1 | u | -18.3% | u | 10.4 |
| COc1cccc([C@@H]2CC=C(C(=O)O)[C@H](c3ccc(Br)cc3)N2S(=O)(=O)c2ccc(C)cc2)c1 | 2.9% | x | 0.4% | x |
| O=S(=O)(c1cc(F)ccc1F)N1CCN(c2ncccn2)CC1 | 0.1% | -0.4% | 4.5% | x |
| CCOC(=O)N1CCN(c2c(NCCCN(CC)CC)c(=O)c2=O)CC1 | 4.3% | 4.1% | 1.2% | 6.6 |
| N#Cc1c(C(F)(F)F)cc(-c2ccccc2)nc1SCc1nc(N)nc(N2CCOCC2)n1 | 8.9% | -3.6% | u | -7.8 |
| CC(C)(C)n1nc2c(c1NC(=O)c1cc3ccccc3o1)CS(=O)(=O)C2 | 11.6% | -9.7% | 3.7% | -0.2 |
| Cc1cc(C)c(C)c(S(=O)(=O)N2CCC(C(=O)N3CCCC3)CC2)c1C | 6.3% | x | -0.7% | x |
| Cc1nc(SCC(=O)N2CCCCCC2)c2c(=O)n(C)c(=O)n(CC(C)C)c2n1 | 0.0% | x | 0.2% | x |
| COc1ccc2[nH]c(=O)c(CN(Cc3nnnn3Cc3ccccc3)CC3CCCO3)cc2c1 (stereo not given) | 2.9% | -18.5% | u | 2.7 |
| CC1=NN(C(=O)c2ccccc2)C(O)(c2ccc(Br)cc2)C1 (stereo not given) | 21.6% | -31.9% | -2.8% | -13.7 |
| COc1ccc(CNC(=O)CS(=O)Cc2nc(-c3ccc(OC)c(OC)c3)oc2C)cc1 (stereo not given) | -0.6% | -17.0%&-7.5% | -0.5% | x |
| CC(C)[C@H](Nc1ccc(S(=O)(=O)N2CCOCC2)cc1[N+](=O)[O-])C(=O)OCC(=O)N(C(C)C)C(C)C | 2.1% | 0.9% | 0.9% | -4.0 |
| Cc1cccc(NC(=O)C2CCN(C(=O)NC3CCCCC3)CC2)c1 | 6.5% | 1.3% | -2.2% | x |
| CN1CCN(S(=O)(=O)Cc2ccc(Cl)cc2)CC1 | 1.3% | -2.7% | 5.5% | -2.9 |
| CSc1nc(-c2ccc(N(C)C)cc2)c(C#N)c(=O)n1C | u | -29.4% | u | -15.1 |
| COC(=O)c1ccc(CSc2nnc(CS(=O)Cc3ccc(Br)cc3)n2-c2ccccc2)cc1 (stereo not given) | -3.6% | 9.2% | -3.3% | -10.0 |
| CC(=O)N(C)c1ccc(NC(=O)/C=C/c2ccccc2Cl)cc1 | u | -37.6% | -1.7% | 5.5 |
| Cc1cccc(N2C(=O)C(O)=C(C(=O)c3cccs3)C2c2ccc(C(C)C)cc2)n1 (stereo not given) | -7.0% | -7.0% | u | -4.9 |
